Assay outcomes as filed in PubChem BioAssay.
D2 agonist: human D2 receptor agonism in beta-arrestin assay; P14416; DiscoveRx PathHunter D2 beta-arrestin, luminescence, 90 min; 100% = 57 uM dopamine signal; activation, % (no concentration beside the values); 0.084% of 360,000 active; AID 624465; in the data active = activation above about 40%; inconclusive = about 15% to 40%; inactive = below about 15%; further: compound concentration not given in the record; the text of the record calls up to 30% inactive
Target sequence (P14416 whole entry, looked up): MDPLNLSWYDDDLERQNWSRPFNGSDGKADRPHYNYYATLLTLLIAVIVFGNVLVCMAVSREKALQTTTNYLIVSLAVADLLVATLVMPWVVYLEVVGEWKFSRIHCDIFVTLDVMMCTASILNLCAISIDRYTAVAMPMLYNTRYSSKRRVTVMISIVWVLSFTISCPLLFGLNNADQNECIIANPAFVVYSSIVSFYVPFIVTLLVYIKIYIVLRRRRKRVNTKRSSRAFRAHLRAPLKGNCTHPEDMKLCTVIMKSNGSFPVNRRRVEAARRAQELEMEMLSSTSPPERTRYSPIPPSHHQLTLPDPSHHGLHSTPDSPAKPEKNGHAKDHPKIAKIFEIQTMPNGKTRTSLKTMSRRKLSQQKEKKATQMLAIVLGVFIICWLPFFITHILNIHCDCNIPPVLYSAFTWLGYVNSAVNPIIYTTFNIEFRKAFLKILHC
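DiscoveRx PathHunter D2 beta-arrestin cells (2,100/well) attached overnight, then compound-stimulated 90 min at 37 C in HBSS/10 mM HEPES/0.1% Tween-20 buffer; beta-galactosidase complementation read by luminescence after 1 h at ambient temperature. Dopamine 57 uM final (EC100) as control.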
PINK1 expr mod: modulators of PINK1 expression; PINK1 immunofluorescence, high-content cytometry, 24 h; Potency, µM (titrated, usually from 76.6 µM), for the others: at the highest dose activation (PINK1 increase), actives largely listed as activators; 0.2% of 410,000 active; AID 624263; active = well fitted activation curve with a large enough effect; inconclusive = small, poorly fitted or top-dose-only effect; inactive = flat fitted curve, though single readings scatter; cell line not stated here;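 further: potency means the concentration at half of the fitted maximal effect; % of control where 0% means no effect; nearly all actives have a fitted effect of over 65% in size; a mitochondrial uncoupler was the plate control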
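PINK1 protein, normally rapidly degraded, was detected by immunofluorescence after 24 hour compound treatment of a stable cell line. Titration data (5 concentrations) came from laser-scanning cytometry, with CCCP-treated wells as controls.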
Sfp inh: inhibitors of Bacillus subtilis Sfp phosphopantetheinyl transferase | 3.5% of 310,000 active | Biochemical Sfp PPTase activity, qHTS | AID 1490 | Q9F4F7 | Potency, µM, for the others: max response, negative = inhibition, actives largely listed as inhibitors; active means well fitted inhibition curve with a large enough effect; inconclusive means small, poorly fitted or top-dose-only effect, or another doubt; inactive means no such curve, though single readings can be large or run the other way;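 further: the enzyme is Sfp with the accession as filed and its product quenches rhodamine fluorescence; potency means the concentration at half of the fitted maximal effect; 0% = enzyme reaction without inhibitor and -100% = no enzyme wells; top concentration of the series not given in the record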
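Step 1, compound plus 15 nM Sfp-PPTase, 15 min, room temperature. Step 2, add rhodamine-CoA (5 uM) and BHQ-2-YbbR (12.5 uM). Step 3, read 525/598 nm fluorescence at 0 and 30 min.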
D2 potentiator: human D2 receptor positive allosteric modulation; P14416; DiscoveRx D2 beta-arrestin cells, luminescence, 90 min; 100% = 57 uM dopamine signal; potentiation, % (test concentration not listed); 0.23% of 360,000 active; AID 624464; active = potentiation of 50% or more; inconclusive = 30% to 50%; inactive = 30% or less;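 further: compound concentration not given in the record; tested on top of an EC20 dose of dopamine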
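PathHunter beta-arrestin assay in DiscoveRx D2 cells. Compounds were added with an EC20 of dopamine (50 nM final) for 90 min at 37 deg C. Luminescence was read 1 h after detection reagent, with 57 uM dopamine as the EC100 control.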
TRPV1 PAM: human TRPV1 potentiation; potentiation, % at 8.33 µM; TRPV1-expressing cells, Fluo-8 calcium influx, capsaicin EC20 potentiation; host cell line not named in the record; control for the full effect not named in the record; AID 540277; 0.02% of 320,000 active; active means potentiation above 80%; inconclusive means 30% to 80%; inactive means below 30%; further: 0% is about no effect
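Cells expressing TRPV1 were dye-loaded with Fluo-8 and read kinetically: 10 s baseline, 3 min after compound (agonist portion), then 2 min after EC20 capsaicin (allosteric enhancer portion). Calcium-bound dye fluorescence at 480/520 nm.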
CtBP-E1A blk: blocks the CtBP interaction with E1A; AlphaScreen GST-E1A/His-CtBP binding, 1536-well; active compounds read low; control for the full effect not named in the record; activity change, % (concentration not given with the values); 0.49% of 340,000 active; AID 651724; in the data active means activity change below about -65%; inconclusive means about -30% to -65%; inactive means above about -30%; further: on the % scale 0 is the no-effect control and ±100 the full control effect
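Protein mix (5X: 125 nM each GST-E1A, His-CtBP) was incubated with pinned compound 2 h at 37 deg C in dark, in 50 mM Tris pH 8.0 buffer with 300 mM NaCl. Glutathione donor and nickel acceptor beads followed; AlphaScreen signal read after 1 h.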
Six1-Eya2 blk: Six1/Eya2 interaction inhibition; Q15475+O00167; AlphaScreen GST-Six1/His-Eya2 binding, biochemical; active compounds read low; control for the full effect not named in the record; 0.56% of 360,000 active; activity change, % (test concentration not listed); AID 651725; in the data active = activity change below about -65%; inconclusive = about -30% to -65%; inactive = above about -30%; further: on the % scale 0 is the no-effect control and ±100 the full control effect
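AlphaScreen luminescence read after one hour at 37 °C in darkness. Pin-transferred compounds met GST-Six1 and His-Eya2 protein (5X stock 250 nM/500 nM) plus glutathione donor and Ni-chelate acceptor beads (5X, 50 ug/mL).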
Numbers without * were called inactive; u = inconclusive; x = not tested or not shown; & = joins results of further samples; [ ] = dose if it differs, or a comment.

SMILES	D2 agonist	PINK1 expr mod	Sfp inh	D2 potentiator	TRPV1 PAM	CtBP-E1A blk	Six1-Eya2 blk
CCCn1cc(SCC(=O)NC2CCCC2)c2ccccc21	-7.8	2.1%	-7.3%	-14.1	-9.0	1.1	-1.3
CCN(c1ccccc1)S(=O)(=O)c1ccc(Cl)c(C(=O)NCc2ccco2)c1	u	-1.0%	x	-6.0	-5.1	-1.5	-3.2
CCN(CC)CC(O)COC(c1ccccc1)c1ccccc1 (stereo not given)	-1.0	-1.3%	-1.2%	-18.3	-7.5	-0.6	-13.9
CN(C(=O)CSc1nnc(-c2ccco2)n1N)C1CCCCC1	-4.9	5.4%	14.2%	-0.4	-7.4	4.2	-0.9
CCOC(=O)C(Cc1ccc(NC(=O)/C(=C/c2ccc(OC(C)=O)cc2)NC(C)=O)cc1)N1C(=O)c2ccccc2C1=O (stereo not given)	-2.6	-0.6%	4.4%	7.5	-7.8	-1.5	-7.4
O=C(NCCc1ccccc1)c1ccccc1F	-0.9	4.0%	-0.1%	-2.0	-25.8	3.8	11.8
CC(C)c1ccc(N(CC(=O)NCCc2ccccc2)C(=O)c2csnn2)cc1	-5.9	0.5%	11.8%	-4.7	14.9	-6.9	-2.3
CS(=O)(=O)N1Cc2ccccc2CC1C(=O)Nc1ccccc1C(N)=O (stereo not given)	-4.3	-3.8%	5.4%	-3.2	29.7	1.6	9.7
C=CCn1c(NC(=O)CC)c(C(=O)OCC)sc1=S	2.1	0.2%	-15.1%	-0.9	-13.0	4.8	-9.1
O=C1NC(Cc2ccccc2)c2nc3cc(F)c(F)cc3c(=O)n2-c2cc3ccccc3cc21 (stereo not given)	-1.3	6.8%	x	x	x	-3.7	-6.6
Cc1ccc([C@@H]2CC=C(C(=O)O)[C@H](c3ccc(F)cc3)N2S(=O)(=O)c2ccccc2C)cc1	-1.0	-0.8%	x	x	x	2.1	3.6
COC(=O)C(C)Sc1nnc(Cc2cc(=O)[nH]c(=O)[nH]2)n1-c1cccc(OC)c1 (stereo not given)	-0.5	1.6%	-1.0%	-0.3	x	5.0	4.5
CC(C)(C)C(=O)Nc1nc2c(s1)COc1ccccc1-2	-3.3	5.6%	-0.6%	-0.5	-5.8	-3.9	-8.1
COc1ccc(N2CCN(C(=O)CCCSc3nc4ccccc4[nH]3)CC2)cc1	-1.0	-2.7%	2.4%	-0.4	-8.3	-1.3	-1.2
Cc1ccc(NC(=O)O/N=C/c2ccc(Br)cc2)cc1	-0.4	3.4%	15.5%	-3.8	15.7	2.2	-1.5

Gathered by group: those above with fluorine.
SMILES	D2 agonist	PINK1 expr mod	Sfp inh	D2 potentiator	TRPV1 PAM	CtBP-E1A blk	Six1-Eya2 blk
O=C(NCCc1ccccc1)c1ccccc1F	-0.9	4.0%	-0.1%	-2.0	-25.8	3.8	11.8
O=C1NC(Cc2ccccc2)c2nc3cc(F)c(F)cc3c(=O)n2-c2cc3ccccc3cc21 (stereo not given)	-1.3	6.8%	x	x	x	-3.7	-6.6
Cc1ccc([C@@H]2CC=C(C(=O)O)[C@H](c3ccc(F)cc3)N2S(=O)(=O)c2ccccc2C)cc1	-1.0	-0.8%	x	x	x	2.1	3.6

Going on with the list.
SMILES	D2 agonist	PINK1 expr mod	Sfp inh	D2 potentiator	TRPV1 PAM	CtBP-E1A blk	Six1-Eya2 blk
CCn1c(=O)c2c(nc3n2CCS3)n(C)c1=O	-3.6	-0.5%	11.6%	-9.0	9.3	3.1	-11.6
CN(C)Cc1c(O)ccc2occ(C(=O)c3ccccc3)c12	2.2	-2.1%[38.3 µM]	9.5%	-8.3	16.9	-0.5	-0.7
O=C1NC(c2ccccc2)=C(c2ccccc2)C1=O	-3.4	2.4%	6.8%	-5.1	4.7	7.3	-5.5
OCC[C@H]1C[C@@H](O)[C@H](O)[C@]2(Cc3ccccc3CCO2)O1	-2.1	0.5%	x	-4.7	-12.0	8.0	5.9
CCCOc1ncnc2c1[nH]c1ccccc12	-0.1	2.0%[38.3 µM]	12.0%	-5.8	-9.5	-0.4	-4.4
COC(=O)[C@H](CC(C)C)NS(=O)(=O)c1ccccc1	-1.7	0.7%	16.4%	-8.7	-6.3	1.2	1.6
COc1cc([C@H]2[C@@H]3CCCC[C@]3(O)CCN2Cc2ccccc2F)ccc1O	-4.5	0.9%	-1.8%	-14.1	18.2	-0.9	0.5
CNc1ccc(/C=C(\C#N)C(=O)Nc2ccccn2)cc1[N+](=O)[O-]	-4.1	u	-0.9%	-3.9	1.8	3.0	-0.1
CC(C)C[C@@H]1NC(=O)N(CCCn2ccnc2)C1=O	0.0	-1.6%	14.4%	-4.3	11.5	-2.5	3.0
O=c1c2c(n3nnnc3n1Cc1ccccc1)-c1ccccc1CC21CCCC1	-4.6	0.1%	10.5%	-4.5	-4.1	3.2	2.9
O=C(NNc1ccc(Cl)cc1)c1sccc1Cl	-8.6	3.1%	-10.5%	-23.6	-7.8	x	-7.8
COc1ccc(NC(=O)CN(C)C(=O)CN2C(=O)NC3(CCCC3)C2=O)cc1	-3.2	-0.5%	x	-9.9	-3.7	2.8	0.6
CC(NC(=O)C1CCN(S(=O)(=O)c2cccs2)CC1)c1cccc(Cl)c1 (stereo not given)	0.9	-1.1%	x	-2.6	3.5	2.0	3.3
N/C(=N\OC(=O)CCc1ccccc1)c1cccc(Br)c1	0.5	1.6%[38.3 µM]	-1.9%	-0.8	u	48.2	62.3
O=C(CCCCCN1C(=O)[C@@H]2Cc3ccccc3CN2C1=O)N[C@@H](Cc1ccc(O)cc1)C(=O)O	-4.3	-0.6%	6.5%	-33.2	9.3	-17.7	3.5
CCOC(=O)C1CCN(C(=O)CCCn2c(=O)c3cccn3c3cccnc32)CC1	0.9	2.7%	16.8%	1.2	-1.3	-0.7	-1.7
Cc1ccc(S(=O)(=O)Oc2ccc(/C=N/NC(=O)c3c(Cl)cnn3C)cc2)cc1	-1.5	-0.2%	8.4%	-26.0	-16.2	-1.2	-3.1
COc1ccc(/C=C2\Oc3cc(OCC(N)=O)ccc3C2=O)cc1OC	-5.5	3.1%	15.5%	0.1	6.2	x	11.1
FC(F)(F)c1cc(CCN2CCNC[C@@H]2c2ccccc2)cc(C(F)(F)F)c1	-3.8	-1.3%	x	-23.2	x	3.1	2.0
CCCCN(CC)CCNC(=O)c1cc2c(=O)n(C)c3ccccc3c2s1	-2.2	-0.1%	2.6%	-11.1	-5.5	-9.6	-9.1
O=C(COC(=O)c1ccccc1Cl)Nc1cccc(S(=O)(=O)N2CCCCC2)c1	-3.5	1.9%	x	-10.6	x	1.5	-5.2
CCOc1ccc(C(=O)Nc2ccc(S(=O)(=O)N3CCOCC3)cc2)cc1OCC	-0.1	-1.1%	0.8%	-9.9	u	-2.7	-5.2
Oc1ccccc1C=NCC(O)c1ccccc1 (stereo not given)	-1.4	-0.6%	u	11.1	6.9	1.1	3.0
COc1cc(C(=O)Nc2sc(C)c(C)c2C(=O)O)cc(OC)c1OC	-1.1	1.5%	-16.9%	-4.4	3.6	0.2	-5.5
CN(C)/C=N/c1sc2c(c1C#N)CCC2	-1.8	-1.2%[38.3 µM]	-2.2%	-5.5	-5.3	8.1	-2.6
Cc1ccc(C(CC(=O)O)NC(=O)c2ccc(S(=O)(=O)N3CCCC3)cc2)cc1 (stereo not given)	-2.4	-1.0%	x	-13.2	9.0	-0.7	5.7
CCOc1ccc(CCNC(=O)COC(=O)c2cccc(N(C)C)c2)cc1OCC	3.0	-3.0%	x	0.1	10.1	-14.9	-11.1
CCOC(=O)c1ccc(N2C(=O)C3C(C2=O)C(C(=O)c2ccc(Cl)cc2)N2CCCC32)cc1 (stereo not given)	-4.4	2.6%	u	-23.6	6.2	-3.0	-4.2
CCCCCC(O)(CCN1CCCCC1)c1ccc(OCC)cc1 (stereo not given)	-8.1	4.7%	-13.1%	-18.9	0.1	18.6	7.1
Cc1c(C(=O)NCCSCc2c(F)cccc2Cl)cnn1-c1ccc(Cl)cc1	0.8	0.0%	2.6%	-9.2	-7.5	1.4	-1.9
CCOc1ccc(Br)cc1S(=O)(=O)NC1CCCC1	1.8	0.2%	x	-8.9	-12.1	1.5	9.3
CCN1C(=O)[C@H]2[C@@H](c3ccc(-c4ccc(C(C)=O)cc4)cc3)N3CCC[C@@]3(C(=O)OC)[C@H]2C1=O	5.5	-0.5%	x	2.2	18.3	-0.3	-1.0
CC(C)OC(=O)NCCOC(=O)Nc1ccc(Cl)c(Cl)c1	-1.8	1.6%	-19.4%	-16.5	-7.7	7.4	2.6
Nc1nc(SCC(=O)Nc2cc(C(F)(F)F)ccc2N2CCOCC2)n[nH]1	-1.3	0.0%	17.6%	3.8	2.1	4.4	3.9
Cc1ccc(N2CC(C(=O)NCCS(=O)(=O)N3CCN(c4ccccc4F)CC3)CC2=O)cc1 (stereo not given)	6.2	-0.4%&2.7%	15.5%	-1.2	5.9	1.7	0.9
Cc1ccc(NC(=O)CC2S/C(=N/N=C3\CCCc4ccccc43)NC2=O)cc1 (stereo not given)	-1.6	-1.8%	33.7%	-1.4	-3.5	-14.3	-0.6
CCN(CC)C(=O)C(C)OC(=O)COc1ccc(Cl)cc1C (stereo not given)	0.1	-1.0%	13.0%	-11.7	6.3	0.0	-0.2
O=C(c1ccc(-c2ccccc2)cc1)N1CCC2CC1c1cc(-c3ccc4c(c3)OCO4)ccc12 (stereo not given)	-5.6	1.7%	x	-7.2	x	-18.2	-9.8
Cc1[nH]n(-c2ccccc2)c(=O)c1N=Nc1c(O)cc(S(=O)(=O)N(C)C)c2ccccc12	-0.2	4.4%	x	-15.9	-1.1	-11.1	-17.1
COc1cc(NC(=S)N2CCCC(CO)C2)cc(OC)c1 (stereo not given)	-3.6	0.2%	u	-4.6	-0.5	-1.6	-1.3
CC(=O)Oc1ccc(NC(=O)Cc2ccccc2)c(C(=O)O)c1	0.2	1.8%	-7.3%	4.2	-11.7	7.9	9.0
CCOC(=O)c1cc(C)n(Cc2ccc(OCC)c(OC)c2)c1C	0.1	2.1%[38.3 µM]	-15.6%	1.0	-0.4	-22.4	-17.6
Cc1cc(Br)c(NC(=O)CN2C(=O)NC3(CCOc4ccccc43)C2=O)c(Br)c1 (stereo not given)	-4.5	-0.2%	x	-6.1	x	-10.1	-9.4
CC1=C(C(=O)N(C)C)CC(CC(=O)NCCN2CCOCC2)C(=O)N1Cc1ccccc1 (stereo not given)	-9.3	0.3%	x	0.7	x	1.6	4.1

Compounds as they come (roughly 3.7% active in at least one column).
